Assay outcomes from PubChem.
Biofilm kill mix = clotrimazole potentiators killing C. albicans biofilm, primary screen, 4-compound mixtures. C. albicans biofilm persisters + clotrimazole, fluorescence viability; primary screen in compound mixtures of four per well. inhibition, % at 7.6 µM. 0.02% of 120,000 active. AID 1242, 2008;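 active = inhibition above 30.3% in the primary screen of four-compound pools, then above 30% when the compound was retested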;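 note: compounds exposed to preformed 24 h biofilms for 48 h; the number belongs to the whole pool; some results filed as inactive read as strong as hits; inactives centre near 12; 0% = biofilm with clotrimazole alone and 100% = kill control; retested singly at about 60 µM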
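System: C. albicans CAF4-2 wild-type biofilms; Medium: RPMI/MOPS medium, pH 7.0; Reagent: Clotrimazole, 50 µg/mL; Times: biofilm formation 24 h, compound exposure 48 h, 37 °C; Detection: 2-h Alamar Blue fluorescence, 535/590 nm excitation/emission; Evaluation: percent inhibition of biofilm viability.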
* hit, by the source's call.

SMILES	Biofilm kill mix
N#CCCCn1c(=O)oc2ccccc21	18
O=C(Nc1ccc(OCc2ccccc2)cc1)Nc1ccccc1C(=O)NCCCN1CCOCC1	16
CC(C)NC(=O)c1ccc(C2SCC(=O)N2Cc2ccccc2)cc1 (centres undefined)	12
CCN(CC)C(=O)Cn1cnc2sc(C(=O)N3CCN(Cc4ccc5c(c4)OCO5)CC3)c(C)c2c1=O	11
O=C1NC(Cc2ccccc2)C(=O)N1CC(=O)N1CCCc2ccccc21 (centres undefined)	16
CCN(C(=S)Nc1ccc(Oc2ccccc2)cc1)c1ccccc1	8
CN(c1cccc(NC(=O)CN(c2cccc(Cl)c2)S(=O)(=O)c2ccccc2)c1)S(C)(=O)=O	18
C/C(=N/NC(=O)c1ccncc1)c1c[nH]c2ccccc12	-4
O=C(O)CCn1cc(/C=C\C(=O)c2ccc(Cl)cc2)c(-c2cccc(Br)c2)n1	16
COc1cc(/C=C/C(=O)OCC(=O)Nc2cc(S(=O)(=O)N(C)C)ccc2Cl)ccc1O	8
COc1ccc(N/C=C/C(=O)c2ccc(Cl)cc2)cc1	2
O=C(NCc1ccccc1)c1cccc(COc2cc(Cl)ccc2Cl)c1	14
O=C(N/N=C\c1c(O)ccc2ccccc12)c1ccc(S(=O)(=O)N2CCCCC2)cc1	-3
Cc1cc(C(=O)N/N=C/c2cc(Br)ccc2OC(=O)c2ccccc2Cl)n[nH]1	8
Cc1ccc2nc(-c3ccccn3)cc(C(=O)Nc3ccc(S(=O)(=O)N4CCOCC4)cc3)c2c1	8
C#CCNC(=O)C1=C[C@@H](C2CCCCC2)[C@H](CCCO)[C@@H](OCC)O1	15
Cc1sc(NC(=O)C2C3CCC(C3)C2C(=O)O)c(C(N)=O)c1-c1ccc(C(C)(C)C)cc1 (centres undefined)	16
CC1(C)CC(=O)C(C2c3ccccc3Oc3ccccc32)C(=O)C1	9
CCCc1nc2oc3ccccc3c(=O)c2c(=O)n1-c1ccccc1	20
CCCN(CC1CC1)C(=S)NC(=O)c1ccc(S(=O)(=O)N2CCOCC2)cc1	20
CCNC(=S)/N=C(/Nc1ccccc1)Nc1nc(C)cc(C)n1	5
CCOP(=O)(OCC)C(NC(=O)Nc1ccccc1)c1ccccc1 (centres undefined)	-4
CC(=O)c1c(C)[nH]c(C(=O)CSc2ncnc3sc(-c4ccccc4)cc23)c1C	19
CCOc1ccc(NC(=O)CN(c2ccc([N+](=O)[O-])cc2)S(=O)(=O)c2ccccc2)cc1	14
COc1ccc(CCNC(=O)CSc2c[nH]c3ccccc23)cc1OC	13
Cc1cccc(N(Cc2cc3ccccc3[nH]c2=O)C(=O)c2cccs2)c1	27
O=C(NC(=S)Nc1ccc(Cc2ccncc2)cc1)c1ccccc1	14
CC(C)OC(=O)c1cc(NC(=S)Nc2ccc([N+](=O)[O-])cc2)cc(C(=O)OC(C)C)c1	-6
CCCS(=O)(=O)N1CCN(Cc2ccc3c(c2)c2ccccc2n3CC)CC1	19
C=CCN1c2ccccc2[C@]23C[C@@H](C(=O)OC)N=C2NC(C(=O)OC)=C(C(=O)OC)[C@H]13	14
COc1cccc(C(=O)N2CCn3c2nc2ccccc23)c1	7
CCN(CC)S(=O)(=O)c1ccc(OC)c(NC(=S)Nc2cccc(C)c2C)c1	4
COc1ccc(C(CCN2CCCC(C)C2)c2c(OC)cc(OC)c3c(-c4ccccc4)cc(=O)oc23)cc1 (centres undefined)	14
COC(=O)c1cn(NC(=O)c2cc([N+](=O)[O-])ccc2F)c(=O)c2ccccc12	14
COc1ccc(NC(=S)NCCc2ccc(S(N)(=O)=O)cc2)c(OC)c1	13
CC(=O)Nc1ccc(C(=O)/C=C/c2ccc[nH]2)cc1	7
O=C(Nc1cccc(C(=O)O)c1)/C(=C\c1ccc2c(c1)OCO2)NC(=O)c1ccc(Br)o1	10
O=C(NC1CCCCC1)C1CC(=O)N(c2cccc([N+](=O)[O-])c2)C1 (centres undefined)	11
N#CC1=C(N)N(c2ncn[nH]2)C2=C(C(=O)CCC2)C1c1ccccc1 (centres undefined)	-5
Cc1cc(C(=O)Nc2ccccc2N2CCOCC2)c(C)o1	18
Cc1ccc(C(=O)CC(C(=O)O)P(=O)(c2ccccc2)c2ccccc2)cc1 (centres undefined)	-4
CCOc1ccc(C(C(=O)NC2CCCCC2)N(C(=O)c2ccco2)c2ccc(-n3cnnn3)c(C)c2)cc1 (centres undefined)	16
Cc1ccc(-c2nc3ncccc3o2)cc1NC(=S)NC(=O)c1ccco1	12
Cc1cc(NC(=O)CN(C)CCOc2ccccc2)ccc1Br	11
COc1ccc(N=Cc2c(O)cc(C)oc2=O)cc1	6
COc1ccccc1NC(=O)c1nnn(CC(=O)Nc2ccccc2)c1N	16
Cc1ccc2cc3c(N)c(C(=O)Nc4c(C)[nH]c(=O)[nH]c4=O)sc3nc2c1	17
C/C(CC(=O)Nc1ccc(Cl)cc1)=N\NC(=O)C(=O)N1CCCCC1	10
CCc1cc[n+](C2=C([O-])c3ccccc3C(=O)/C2=N\S(=O)(=O)c2cccs2)cc1	16
O=C(CSc1ccc(-c2cccnc2)nn1)N1CCCC1	15
O=C(c1cccc([N+](=O)[O-])c1)N1CCN(c2n[nH]c(=O)[nH]c2=O)CC1	21
NC(=O)COC(=O)CC1CC2CCC1C2 (centres undefined)	-9
O=C(Cc1ccccc1)NC(NNc1ccccc1)(C(F)(F)F)C(F)(F)F	8
COc1cccc(CNC(=S)Nc2cc(C)ccc2C)c1	15
O=C(CSc1nnc(-c2ccc([N+](=O)[O-])cc2)o1)Nc1ccccn1	-4
CCOC(=O)C(NC(=O)c1ccc(F)cc1)(Nc1sc2c(c1C(N)=O)CCC2)C(F)(F)F (centres undefined)	10
Cc1ccc2oc(=O)c(/C=C(\O)c3ccccc3)nc2c1	13
CC(/C=N\NC(=O)CN1CCN(S(=O)(=O)c2ccc(C)cc2)CC1)=C\c1ccccc1	11
COc1ccccc1CNC(=O)c1ccc2nc3[nH]c4ccccc4c3nc2c1	14
Cc1ccc2nc(-c3ccc(S(=O)(=O)N4CCCCC4)cc3)cn2c1	19

Copied from the list:
Under Biofilm kill mix, CCN(CC)S(=O)(=O)c1ccc(OC)c(NC(=S)Nc2cccc(C)c2C)c1 reads 4
Under Biofilm kill mix, CCNC(=S)/N=C(/Nc1ccccc1)Nc1nc(C)cc(C)n1 reads 5

The main list resumes, starting six compounds before the break.
SMILES	Biofilm kill mix
O=C(CSc1nnc(-c2ccc([N+](=O)[O-])cc2)o1)Nc1ccccn1	-4
CCOC(=O)C(NC(=O)c1ccc(F)cc1)(Nc1sc2c(c1C(N)=O)CCC2)C(F)(F)F (centres undefined)	10
Cc1ccc2oc(=O)c(/C=C(\O)c3ccccc3)nc2c1	13
CC(/C=N\NC(=O)CN1CCN(S(=O)(=O)c2ccc(C)cc2)CC1)=C\c1ccccc1	11
COc1ccccc1CNC(=O)c1ccc2nc3[nH]c4ccccc4c3nc2c1	14
Cc1ccc2nc(-c3ccc(S(=O)(=O)N4CCCCC4)cc3)cn2c1	19
O=C(O)CCc1nn2c3ccccc3n(CC(=O)c3cccs3)c2nc1=O	25
Cc1ccc(CN2C3=NCCN3c3ccccc32)cc1	17
CCCC(=O)n1nc(-c2cccnc2)nc1NCc1ccc(OC)cc1	34
COc1ccccc1NC(=O)Nc1ccc2c(c1)nc(C)n2C	8
CCOC(=O)C(NC(=O)c1cccc(Cl)c1)(Nc1sc2c(c1C(N)=O)CCC2)C(F)(F)F (centres undefined)	18
Cc1ccc(C(=O)NCC(=O)NCC(=O)OCC(=O)c2ccc(F)cc2)cc1	8
C=C1C(=O)O[C@@H]2C[C@@H](C)[C@@H]3C=CC(=O)[C@@]3(C)[C@@H](OC(C)=O)[C@H]12	8
CCc1nnc(NC(=O)Cc2ccc(Br)cc2)s1	9
N#Cc1c(-c2ccccc2)cc2nc3ccccc3n2c1N	10
Cc1ccc(C)c(OCCN2C(=O)NC3(CCc4ccccc4C3)C2=O)c1 (centres undefined)	20
COc1cc(/C=N/NC(=O)C(=O)NCc2ccco2)cc(Br)c1O	4
CC1(c2ccccc2)O[C@@H]2C[C@H]3[C@@H]4CCC5=CC(=O)C=C[C@]5(C)[C@@]4(F)[C@@H](O)C[C@]3(C)[C@]2(C(=O)CO)O1 (some centres undefined)	7
Cc1cc(S(=O)(=O)N2CCN(C(=O)CCC(=O)N3CCOCC3)CC2)ccc1Br	16
CCOC(=O)C(NC(=O)c1ccccc1Cl)(Nc1ccc(C)c(C)c1)C(F)(F)F (centres undefined)	10
CCS(=O)(=O)c1c([N+](=O)[O-])ncn1C	21
O=C(Cn1cncn1)NCc1ccc(Cl)cc1	10
Cc1ccc(NC(=O)C2Cc3ccccc3CN2C(=O)c2ccccc2)cc1Cl (centres undefined)	22
Cc1ccccc1CSc1nc2ccccc2c(=O)[nH]1	9
O=C(NNC(=S)NC(=O)c1cccs1)c1cccnc1	13
Cc1ccc(Nc2nnc(SCC(=O)Nc3ccccc3[N+](=O)[O-])s2)cc1	14

Three structures already listed, sorted by length of the SMILES, highest first.
SMILES	Biofilm kill mix
Cc1ccccc1CSc1nc2ccccc2c(=O)[nH]1	9
Cc1ccc(CN2C3=NCCN3c3ccccc32)cc1	17
CCc1nnc(NC(=O)Cc2ccc(Br)cc2)s1	9

Carrying on:
SMILES	Biofilm kill mix
Cc1ccc(-c2nc(C(=O)O)cs2)cc1	9
CC(=O)c1ccc(OC(C)C)c(Cc2c(O)nc(N)[nH]c2=O)c1	19
Cc1ccc(C(O)CSc2nnc(-c3ccc4ccccc4c3)n2C)cc1 (centres undefined)	26
Cc1ccc2cc(CN(CC3CCCO3)C(=S)Nc3ccccc3)c(=O)[nH]c2c1 (centres undefined)	6
CCC(NC(=O)NCc1ccccc1)(C(F)(F)F)C(F)(F)F	-3
CCOC(=O)c1cnc2ccc(C(=O)OC)cc2c1Nc1ccc(C(=O)O)cc1	7
COc1cccc(NC(=O)Cn2c(=O)oc3cc(S(=O)(=O)N4CCCC4)ccc32)c1	20
CCOC(=O)c1c(NC(=O)/C=C/C(=O)O)sc(C)c1-c1ccc(C(C)(C)C)cc1	6
C/C(=N\Nc1ccc([N+](=O)[O-])cc1)c1ccc(O)cc1	12
CCn1cc(C(=O)O)c(=O)c2cc(F)c(N3CCN(C(=S)NC(=O)c4ccc(F)cc4)CC3)cc21	19
O=C(CC1SC(=Nc2ccc3c(c2)OCCO3)NC1=O)Nc1ccc(F)cc1F (centres undefined)	16
COc1ccc(OC)c(CN2CCCC(CCC(=O)N(C)CCc3ccccn3)C2)c1 (centres undefined)	12
COC(C[C@@H]1O[C@@H]1[C@@H](O)[C@@H](C)OCc1ccccc1)OC	17
CC(=O)O/N=C(\N)c1ccc(-c2csnn2)cc1	24
Cn1c(COc2cccc3cccnc23)nnc1SCC(=O)O	10
CN(C)C(=O)CSc1nnc(Cc2ccccc2)n1Cc1ccco1	14
COc1cc(/C=C(/NC(=O)c2ccc(Cl)cc2Cl)C(=O)O)cc(OC)c1OC	9
C=C(C)CNC(=O)CCc1nnc(C2(c3ccc(Cl)cc3)CCC2)o1	24
Cn1nnnc1SCC(=O)Nc1ccc2c(c1)OCO2	22
COc1cc([N+](=O)[O-])c(OC)cc1SCc1n[nH]c(=S)n1-c1ccc(C)cc1	16

3 entries from above, with bars between the fields.
SMILES | Biofilm kill mix
COc1cc(/C=C(/NC(=O)c2ccc(Cl)cc2Cl)C(=O)O)cc(OC)c1OC | 9
CC(=O)c1ccc(OC(C)C)c(Cc2c(O)nc(N)[nH]c2=O)c1 | 19
CN(C)C(=O)CSc1nnc(Cc2ccccc2)n1Cc1ccco1 | 14

More records follow.
SMILES	Biofilm kill mix
CCCNC(=O)c1ccccc1NC(=O)CN(c1ccccc1)S(=O)(=O)N(C)C	10
CC(=O)OCCCNc1cc(Sc2ccc(C)cc2)c2nonc2c1[N+](=O)[O-]	18
Cn1c(SCC(=O)c2ccc3c(c2)OCCO3)nnc1C(F)(F)F	14
Cn1c(N)c(C(=O)COC(=O)C2CCCN2C(=O)c2cccs2)c(=O)n(C)c1=O (centres undefined)	-3
O=C(O)c1cc(-c2ccc(N3CCOCC3)cc2)nn1-c1ccc(F)cc1	22
CN1CCN(C2=Cc3ccccc3Sc3cc(F)ccc32)CC1	7
CO/N=C/CC(=O)c1ccc(OC)cc1	-3
O=C(CCC(=O)N1CCN(c2ccccn2)CC1)Nc1nnc(C(F)(F)F)s1	13
CC(C)=NNc1nc2c(c(=O)n(C)c(=O)n2C)n1CCc1ccccc1	8
COc1ccc(-c2csc(N(CC3CCCO3)C(=O)c3ccccc3)n2)cc1 (centres undefined)	6
CCCN(CC(=O)Nc1ccc(C(C)=O)cc1)CC(=O)Nc1ccccc1C	18
C/C(CC(=O)N(C(C)C)C(C)C)=N\NC(=O)COc1ccc(Cl)cc1Cl	15
COc1ccc(C(Nc2ccc(S(=O)(=O)NCC3CCCO3)cc2)C(=O)NC(C)(C)C)cc1OC (centres undefined)	2
CC(=O)c1ccc(NC(=S)NCc2ccc(Cl)cc2Cl)cc1	1
Cc1cccc(N=C2NC(=O)/C(=C/C=C/c3ccco3)S2)c1C	14
COC(=O)c1ccc(Oc2c(F)c(F)nc(N3CCOCC3)c2F)cc1	18
Cn1c(N=Nc2ccccc2)nc2ccccc21	20
FC(F)(F)c1n[nH]c(=S)n1/N=C/c1ccco1	-4
O=C1c2ccc(Br)cc2C(=O)N1c1ccc(Cc2ccncc2)cc1	17
CN1CCN(C(=O)CNc2ccc(C(F)(F)F)cc2[N+](=O)[O-])CC1	2
COC(=O)Nc1cc([N+](=O)[O-])ccc1OC	13

The list is partial; rates above refer to the full screens.
